Compound activity deposited in PubChem by several laboratories.
RecA splice inh: Mtb RecA intein splicing inhibitors, primary screen, biochemical, fluorescence, HTS. inhibition, %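 (about 9 µM by stock and volumes)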. Protein RecA (Mycobacterium tuberculosis (strain ATCC 25618 / H37Rv)), P9WHJ3. cell-free RecA intein splicing. AID 2221, 2009. 290,000 tested, 0.75% active; in the data active means inhibition above about 30%; inconclusive means no clear call, values can overlap the other calls;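 further: 0% = vehicle wells and 100% = reference inhibitor control wells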
Target sequence (P9WHJ3 whole entry, looked up, canonical isoform): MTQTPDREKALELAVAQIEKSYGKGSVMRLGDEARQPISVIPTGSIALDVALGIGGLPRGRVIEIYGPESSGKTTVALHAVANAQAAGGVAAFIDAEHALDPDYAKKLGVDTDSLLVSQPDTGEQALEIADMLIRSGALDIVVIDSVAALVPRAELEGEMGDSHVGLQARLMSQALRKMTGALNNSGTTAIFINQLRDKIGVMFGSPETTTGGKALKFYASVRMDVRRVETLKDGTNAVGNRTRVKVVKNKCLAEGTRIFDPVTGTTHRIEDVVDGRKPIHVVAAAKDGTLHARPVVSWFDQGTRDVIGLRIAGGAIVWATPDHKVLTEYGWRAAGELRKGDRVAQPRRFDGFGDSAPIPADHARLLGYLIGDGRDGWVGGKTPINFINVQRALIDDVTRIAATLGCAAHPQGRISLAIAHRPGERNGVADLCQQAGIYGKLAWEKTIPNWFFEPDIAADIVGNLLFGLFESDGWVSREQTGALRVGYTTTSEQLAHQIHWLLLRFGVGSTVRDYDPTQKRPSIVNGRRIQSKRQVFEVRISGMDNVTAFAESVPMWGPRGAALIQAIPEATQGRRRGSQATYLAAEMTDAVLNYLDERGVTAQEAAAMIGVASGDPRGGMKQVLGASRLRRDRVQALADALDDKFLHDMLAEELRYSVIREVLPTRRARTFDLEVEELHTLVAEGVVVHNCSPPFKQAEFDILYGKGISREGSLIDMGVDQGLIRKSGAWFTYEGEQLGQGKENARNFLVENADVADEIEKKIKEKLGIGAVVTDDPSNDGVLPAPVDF
Mtb growth: M. tuberculosis H37Rv growth inhibitors, H37Rv strain (AID 1626). M. tuberculosis H37Rv growth inhibition; higher % means a stronger effect. 220,000 tested, 0.95% active. inhibition, % at 10 µM, or IC50 in µM where a hit was titrated;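 active means confirmed in a dose series; inconclusive means inhibition above 80% but not taken into the dose series; inactive means below 80% or under 30% at every dose of the series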;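 further: bacteria incubated seven days before Alamar blue readout; 0% = bacteria only wells and 100% = bacteria with antibiotic wells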
Arbovirus inh: antivirals against arbovirus infection, primary screen, cell-based, full library, 10K replicate subset | arbovirus infection cell-based antiviral screen | inhibition, % at 10 µM | 200,000 tested, 0.37% active | AID 1251, 2008;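 active means inhibition from about 30%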;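 further: bluetongue infection of BSR cells; cell survival read as ATP light after 72 h; 0% = infected wells without compound and 100% = uninfected wells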
Mtb betalactam: beta-lactam sensitization of Mtb H37Rv, H37Rv. AID 434955, 2010. inhibition, % at 25 µM. 330,000 tested, 0.27% active. M. tuberculosis H37Rv growth with meropenem, percent inhibition; hits of this screen are not shown here;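 active means about 74% or more and at least 40 points above the plate without the antibiotic, then above 30% in a dose series; inconclusive means first-round hits that could not be retested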;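 further: growth measured after seven days incubation then overnight dye step; 0% = bacteria only wells and 100% = bacteria with antibiotic; twin plates without the antibiotic show which effects depend on it; some results filed as inactive read as strong as hits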
YopH PTP inh: YopH tyrosine phosphatase inhibitors, primary screen, biochemical, fluorescence Ex485/Em525; YopH tyrosine phosphatase [Yersinia enterocolitica]; inhibition, %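 (about 10 µM by stock and volumes)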; 140,000 tested, 0.16% active; AID 898, 2007;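 active means inhibition of 50% or more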;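 further: controls were vehicle for no effect and minimum signal wells for full effect; inactives centre near -20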
Arbovirus inh repeat: also measured in Arbovirus inh; calls as there; inhibition, %; measured here: 10K subset replicate screen; many hits read low in the repeat;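 first of two repeat runs on a subset; 0% = infected and 100% = uninfected wells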
An asterisk follows results filed as active. The list is partial (hit frequency here may not be typical).

COc1ccccc1NC(=O)C1=C(C)Nc2ncnn2C1c1ccccc1C (stereo unspecified) was read as RecA splice inh -4.8, Mtb growth -3%, Arbovirus inh -3, Mtb betalactam -30 and YopH PTP inh -31.
For O=C(c1csc(Nc2ccccc2Cl)n1)N1CCCC1 the results were RecA splice inh -2.1, Arbovirus inh 10, Mtb betalactam 0 and YopH PTP inh -51.
Screening O=C1CS/C(=N/N=C2CCCC2)N1 returned Mtb growth 2%, Arbovirus inh -5 and Mtb betalactam 52.
Screening CCCCNC(=O)/C=C/c1cccs1 returned RecA splice inh 1.2, Mtb growth -1%, Arbovirus inh -4, Mtb betalactam 6 and YopH PTP inh -4.
CCOc1ccc(-n2c(SCC(N)=O)nnc2-c2cccnc2)cc1 was read as RecA splice inh 0.5, Mtb growth -5% and Mtb betalactam -7.
CCOC(=O)c1c(S(=O)(=O)NCC(=O)N2CCN(c3ccc(OC)cc3)CC2)c(C)n(C)c1C was read as RecA splice inh -5.5 and Mtb betalactam -8.
`Cc1cc(NC(=O)COc2cccc(C)c2C)no1` gave RecA splice inh -0.7, Mtb growth 7%, Arbovirus inh 4, Mtb betalactam -5, YopH PTP inh -25 and Arbovirus inh repeat 2.
O=C(NCc1ccccc1)C1CCN(S(=O)(=O)c2ccc(Cl)cc2)CC1 was read as RecA splice inh -4.9, Mtb growth -9%, Arbovirus inh 0 and Mtb betalactam -1.
Screening Cc1cccc(NC(=O)C2CCCN2C(=O)Oc2ccccc2)c1C (stereo unspecified) returned RecA splice inh 8.8, Mtb growth 8%, Arbovirus inh 9, Mtb betalactam -7 and YopH PTP inh -10.
O=Cc1ccc(-c2ccc([N+](=O)[O-])cc2Cl)o1 was read as Mtb growth 72% and Arbovirus inh 4.
CCCCCCn1c(=O)c(C(=O)N/N=C/c2cccc(F)c2)c(O)c2ccccc21 was read as RecA splice inh 0.9, Mtb growth 1%, Arbovirus inh -10 and Mtb betalactam 100.
`COc1ccc(CC(=O)Nc2cc(Cl)ccc2C(=O)O)cc1` gave RecA splice inh -0.6, Mtb growth -4%, Arbovirus inh 3 and Mtb betalactam 16.
For O=C(CCN1N=C(c2ccccc2)CCC1=O)NC1CCCC1 the results were RecA splice inh -1.0 and Mtb betalactam -10.
COc1ccc(NC(C)=O)cc1NC(C)C(=O)Nc1ccc(F)cc1 (stereo unspecified) was read as RecA splice inh -2.7, Mtb growth 5%, Arbovirus inh 8, Mtb betalactam 2 and YopH PTP inh -12.
`O=C(Nc1c(-c2ccccc2)nc2sccn12)c1ccccc1` gave Mtb growth -6%, Arbovirus inh -1, Mtb betalactam -13 and YopH PTP inh -29.
Cc1ccc(C(=O)N/C(=C/c2cccs2)C(=O)NCC2CCCO2)cc1 (stereo unspecified) was read as RecA splice inh 2.1, Mtb growth -1%, Arbovirus inh 5 and Mtb betalactam -5.
Cc1ccc(CS(=O)(=O)CCC(=O)NCc2ccccc2Cl)cc1 was read as RecA splice inh 1.7 and Mtb betalactam -13.
For COCCn1c(Cc2ccccc2)nnc1SCC(=O)NC(C)(C)C the results were RecA splice inh 1.4, Mtb growth -8%, Arbovirus inh 9, Mtb betalactam -5 and YopH PTP inh -34.
For O=C1N/C(=N/S(=O)(=O)c2ccccc2)S/C1=C/c1cccnc1 the results were RecA splice inh 0.0, Mtb growth -7%, Arbovirus inh -4, Mtb betalactam -7 and YopH PTP inh -11.
Nc1nonc1C(=O)NCCNCc1cc(Br)ccc1OCc1ccccc1F was read as RecA splice inh 1.7, Mtb growth -3%, Arbovirus inh -2, Mtb betalactam inconclusive and YopH PTP inh 5.
O=C(NC1CC2CCCC(C1)N2C(=O)Nc1ccc(Cl)c(C(F)(F)F)c1)C1CC1 (stereo unspecified) was read as RecA splice inh -0.6, Mtb growth 0%, Arbovirus inh 4, Mtb betalactam -12 and YopH PTP inh -4.
For CCOC(=O)CSc1nnc(CNc2ccc(F)cc2)o1 the results were RecA splice inh -0.4, Mtb growth 7%, Arbovirus inh 8, Mtb betalactam 3 and YopH PTP inh -38.
Screening CCCC(CCC(=O)OC)(C(=O)OCC)c1csc(N)n1 (stereo unspecified) returned RecA splice inh -0.7, Mtb growth 1%, Arbovirus inh 1, Mtb betalactam -5 and YopH PTP inh -41.
Screening COc1ccc(CCNC(=O)C2CC(c3cccc([N+](=O)[O-])c3)=NO2)cc1 (stereo unspecified) returned RecA splice inh -1.9, Mtb growth 14%, Arbovirus inh 4, Mtb betalactam -6 and YopH PTP inh -15.
Screening COc1ccc(-c2nnc(NC(=O)c3ccc(S(=O)(=O)N4CCc5ccccc5C4)cc3)o2)cc1 returned RecA splice inh 2.3, Arbovirus inh -9, Mtb betalactam 35 and YopH PTP inh -5.
Screening Cc1ccc(-n2c(SCC(=O)Nc3cc(C)on3)nc3c(c2=O)SC(C)C3)cc1 (stereo unspecified) returned RecA splice inh -1.2, Mtb growth 8%, Arbovirus inh 3, Mtb betalactam 2, YopH PTP inh -8 and Arbovirus inh repeat 8.
`Cc1c(Cl)c([N+](=O)[O-])nn1CC(=O)NC(C)C1CC2CCC1C2` (stereo unspecified) gave RecA splice inh 0.1, Mtb growth 4%, Arbovirus inh 7, Mtb betalactam 3 and YopH PTP inh -11.
`COc1cc(Cn2ccnc2)c(OC)cc1Cn1ccnc1` gave RecA splice inh 0.0, Mtb growth -1%, Arbovirus inh 1, Mtb betalactam 17 and YopH PTP inh -60.
For COc1ccc(OC)c(-c2csc(NC(=O)C3=NNC(=O)CC3)n2)c1 the results were RecA splice inh -2.2, Mtb growth 0%, Arbovirus inh 6 and Mtb betalactam -6.
For Cc1cc2nc[nH]c2cc1[N+](=O)[O-] the results were RecA splice inh -1.5, Mtb growth 1%, Arbovirus inh 2 and Mtb betalactam -5.
Screening COC(=O)c1cnc(Oc2c(Cl)cc(N)cc2Cl)cc1C(F)(F)F returned RecA splice inh -0.1 and Mtb betalactam -7.
For Nc1nc(SCC(=O)Nc2ccc(Cl)c(S(=O)(=O)N3CCOCC3)c2)n[nH]1 the results were Mtb growth 1% and Mtb betalactam -3.
Screening O=C(Cc1cccs1)N1CCN(S(=O)(=O)c2cccc([N+](=O)[O-])c2)CC1 returned RecA splice inh -0.4 and Mtb betalactam 5.
Cc1ccc(CN2CCNC(=O)C2CC(=O)N(C)C2CCCCC2)o1 (stereo unspecified) was read as RecA splice inh 2.0, Mtb growth -6%, Arbovirus inh -5 and Mtb betalactam -4.
COc1ccc(OC)c(C2c3[nH]c4ccccc4c3C[C@H]3C(=O)N(CCCOC(C)C)CC(=O)N23)c1 (stereo partly specified) was read as RecA splice inh 4.0 and Mtb betalactam -1.
Cc1ccc(NC(=O)N(CCCN2CCOCC2)Cc2cc3cc4c(cc3[nH]c2=O)OCO4)cc1 was read as RecA splice inh -2.8, Arbovirus inh -2, Mtb betalactam -4 and YopH PTP inh -40.
CCCCCCNCc1cccc(Br)c1 was read as RecA splice inh -2.4, Mtb growth 3%, Arbovirus inh 14, Mtb betalactam 2 and YopH PTP inh 1.
CCOC(=O)c1ccccc1NC(=O)Cn1cnc2c(cnn2-c2ccccc2)c1=O was read as RecA splice inh 1.0, Mtb growth -13%, Arbovirus inh -7, Mtb betalactam -3 and YopH PTP inh -26.
O=C(c1ccc(Sc2cccc(Cl)c2)c([N+](=O)[O-])c1)N1CCN(c2ccccn2)CC1 was read as RecA splice inh 5.9, Mtb growth -1%, Arbovirus inh 4 and Mtb betalactam 32.
For CCOc1cc(CNc2ccc(O)cc2)ccc1OCc1ccc(Cl)cc1Cl the results were RecA splice inh 40*, Mtb growth 15%, Arbovirus inh -9, Mtb betalactam 72 and YopH PTP inh 4.
For Nc1c(Sc2ccccc2)c(=O)[nH]c(=O)n1Cc1ccccc1 the results were RecA splice inh 1.0, Mtb growth -2%, Mtb betalactam -1 and YopH PTP inh -1.
For CC(SC(=S)N(C)Cc1cccs1)C(=O)O (stereo unspecified) the results were RecA splice inh -1.7, Mtb growth -7%, Arbovirus inh 4, Mtb betalactam -3 and YopH PTP inh -16.
`CN1CCN(c2ccc([N+](=O)[O-])cc2C(=O)c2ccc(Br)cc2)CC1` gave RecA splice inh -3.5, Mtb growth -3%, Arbovirus inh -21, Mtb betalactam 5 and YopH PTP inh -50.
Cc1ccc(SCC(=O)Nc2ccc(C(=O)Nc3ccc(O)cc3)cc2)cc1 was read as RecA splice inh -0.4, Mtb growth -4%, Arbovirus inh -19 and Mtb betalactam 0.
Screening Cc1ccc(SC(C)C(=O)NCc2ccc(F)cc2)cc1 (stereo unspecified) returned RecA splice inh -0.9, Mtb growth -5%, Arbovirus inh 1 and Mtb betalactam -6.
`O=C(CSc1nnnn1C1CCCC1)Nc1ccc(F)cc1` gave RecA splice inh -0.6, Mtb growth -6%, Arbovirus inh -6, Mtb betalactam -5 and YopH PTP inh -57.
`CC1c2cc3c(cc2CCN1C(=O)c1ccc(Br)cc1)OCCCO3` (stereo unspecified) gave RecA splice inh 10 and Mtb betalactam -2.
For CCC(=O)Nc1ccc(C(=O)Nc2ccc(Br)cc2F)cc1 the results were RecA splice inh -1.8, Mtb growth 3%, Arbovirus inh 2 and Mtb betalactam -2.
For Cc1nc2ccc(S(=O)(=O)NC(C(=O)N3CCn4c3nc3ccccc34)C(C)C)cc2s1 (stereo unspecified) the results were Mtb growth -7%, Arbovirus inh 2, Mtb betalactam 1, YopH PTP inh -45 and Arbovirus inh repeat 4.
`CC1Cc2cc(S(=O)(=O)N3CCC(C(=O)N(C)Cc4ccccc4)CC3)ccc2N1C(=O)C1CC1` (stereo unspecified) gave RecA splice inh 1.6 and Mtb betalactam 6.
Screening Cc1[nH]n2c(=O)c3c(nc2c1-c1ccccc1)CCC3 returned RecA splice inh 2.8, Mtb growth 4%, Arbovirus inh -21, Mtb betalactam 90 and YopH PTP inh -38.
Cc1[nH]n(-c2ccc(Cl)cc2)c(=O)c1C=Nc1ccc(S(=O)(=O)N2CCOCC2)cc1 was read as RecA splice inh 2.6, Mtb growth 1%, Arbovirus inh 1, Mtb betalactam 10 and YopH PTP inh -40.
`O=C(NC1CC1)C1=C[C@@H](c2coc3ccccc3c2=O)C[C@@H](OCc2ccc(CO)cc2)O1` gave RecA splice inh 1.2, Mtb growth -9%, Arbovirus inh -1 and Mtb betalactam 2.
For CCC(NS(=O)(=O)c1ccc(OC)cc1)C(=O)NCCC1=CCCCC1 (stereo unspecified) the results were RecA splice inh -2.0, Mtb growth -2%, Arbovirus inh -4, Mtb betalactam 8 and YopH PTP inh -9.
[O-]C1=N/[N+](=C/c2ccc(Cl)cc2)CC1 was read as RecA splice inh 73*, Mtb growth 0%, Arbovirus inh -2, Mtb betalactam -11 and YopH PTP inh -30.
Screening CCCNC(=O)Nc1nc(CC(=O)OCC)cs1 returned RecA splice inh 1.2, Mtb growth -1%, Arbovirus inh 11 and Mtb betalactam -4.
Screening COc1cc(C(=O)Nc2cc(C(F)(F)F)ccc2-n2cncn2)cc(OC)c1OC returned RecA splice inh -0.1, Mtb growth -4%, Arbovirus inh -5 and Mtb betalactam 1.
For O=C(c1ccc(S(=O)(=O)N2CCOCC2)cc1)N1CCN(c2ccc(F)cc2)CC1 the results were RecA splice inh -1.4, Mtb growth -6%, Arbovirus inh 2, Mtb betalactam -14 and YopH PTP inh -18.
Screening C/C(=N\NC(=S)Nc1cccc(C)c1)c1ccco1 returned RecA splice inh 0.8, Mtb growth inconclusive, Arbovirus inh 7 and Mtb betalactam 89.
Screening Cc1ccc(NC(=O)CCn2ccc([N+](=O)[O-])n2)nc1 returned RecA splice inh 1.1, Mtb growth 2%, Arbovirus inh 0, Mtb betalactam -10 and YopH PTP inh -22.
For CCc1cccc(C)c1NC(=O)CCCC(=O)O the results were RecA splice inh 0.2, Mtb growth -8%, Arbovirus inh 8, Mtb betalactam 8, YopH PTP inh -10 and Arbovirus inh repeat 7.
For COc1ccccc1NC(=O)CSc1nnc(Cc2ccccc2)o1 the results were RecA splice inh 0.2, Mtb growth 1%, Arbovirus inh -8, Mtb betalactam 8 and YopH PTP inh -3.

A portion from further up:
For CCc1cccc(C)c1NC(=O)CCCC(=O)O the results were RecA splice inh 0.2, Mtb growth -8%, Arbovirus inh 8, Mtb betalactam 8, YopH PTP inh -10 and Arbovirus inh repeat 7.
For COc1ccccc1NC(=O)CSc1nnc(Cc2ccccc2)o1 the results were RecA splice inh 0.2, Mtb growth 1%, Arbovirus inh -8, Mtb betalactam 8 and YopH PTP inh -3.
